Methyltransferases – Primary Screen for Target Class Profiling of Small Molecule Inhibitors of Methyltransferases; calls only at 40 µM; purified enzyme, MTase-Glo SAH luminescence; active compounds read low; 25,000 tested, 3.9% active; active = -50% or lower on at least one of six enzymes; inconclusive = the cases between; inactive = as a rule above -30% on all six;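 further: enzymes were COMT GAMT GNMT HNMT NNMT and PNMT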
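Each enzyme was assayed with SAM and its substrate. SAH formation detected by MTase-Glo luminescence; single-point 40 uM screen[…].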
Calls only; i = inactive; ? = inconclusive; + = active, no number. On the % scale 0 is the no-effect control and ±100 the full control effect. These rows are one share of the data; count on the stated rates, not on these rows.

SMILES	Methyltransferases
CCn1c(CN(C)C)nnc1C1CCN(C(=O)Cn2nc(C)cc2N)CC1	i
CCOC(=O)c1cc2n(n1)CC(C)(C(=O)NCc1ccc(C)cc1)N(Cc1ccccc1OC)C2=O (configuration not stated)	i
CCOCCCNC(=O)CCc1nc(C2CCCN2C(=O)c2ccccc2)no1 (configuration not stated)	i
Cc1cccc(CSc2nnc3n(Cc4ccccc4)c(=O)c4ccccc4n23)c1	i
CCCN1C(=O)c2cc3ccc(OC)cc3n2CC1(C)C(=O)NC1CCCC1 (configuration not stated)	i
Cc1ccc(NC(=O)CSc2nnc3n(CC(C)C)c(=O)c4ccc(C(=O)NC(C)C)cc4n23)c(C)c1	i
CC[C@H]1OC(=O)[C@H](C)C(=O)[C@H](C)[C@@H](OC2O[C@H](C)C[C@H](N(C)C)[C@H]2O)[C@@H](C)C[C@@H](C)C(=O)/C=C/[C@]1(C)O (some centres not stated)	i
COc1ccccc1C(=O)NC[C@@H]1C=C(C)[C@H](CC(=O)NCc2ccccn2)C[C@H]1C(C)C	i
CCCN1C(=O)c2c(C(=O)NCc3cccc(Cl)c3)ncn2CC1(C)C(=O)NCc1ccc(OC)cc1 (configuration not stated)	i
COc1cccc(CN2C(=O)c3cc(-c4cccs4)nn3CC2(C)C(=O)NC2CCCCCC2)c1 (configuration not stated)	i
CC(C)C1=CC2C(CC[C@]2(C)O)[C@](C)(O)CC1 (some centres not stated)	i
C/C=C1\[C@H](O[C@@H]2O[C@H](CO)[C@@H](O)[C@H](O)[C@H]2O)OC=C(C(=O)OC)[C@H]1CC(=O)OC[C@H]1O[C@@H](OCCc2ccc(O)cc2)[C@H](O)[C@@H](O)[C@@H]1O	i
Cc1cc(C)cc(N2C(=O)CSc3c(c4ccccc4n3C)C2C(=O)NCCCOC(C)C)c1 (configuration not stated)	i
CC(CNS(=O)(=O)C(C)C)c1ccc(-c2ccc(C#N)cc2)cc1 (configuration not stated)	i
CCOCCCNc1nc2c(-c3ccc(Cl)cc3)nnn2c2ccccc12	i
COc1cccc(C(=O)Cn2nc3n(C(C)C)c(=O)c4ccc(C(=O)NC5CCCC5)cc4n3c2=O)c1	i
Cc1ccccc1NC(=O)Cn1nc2n(C)c(=O)c3ccc(C(=O)NC4CCCC4)cc3n2c1=O	i
CCn1c(CC2CCN(Cc3ccccc3C#N)CC2)nn(C)c1=O	i
CCc1cc(=O)n(CC(=O)NCCc2ccc(Cl)cc2)c(N2CCOCC2)n1	i
Cc1ccc(C)c(NC(=O)N2CCC(n3cnnc3C3CC3)C2)c1 (configuration not stated)	i
COc1ccc2cc3n(c2c1)CC(C)(C(=O)NC1CCCCC1)N(CCc1ccccc1)C3=O (configuration not stated)	i
C=Cc1ccc(Cn2nc3n(C(C)C)c(=O)c4ccc(C(=O)NC(C)C)cc4n3c2=O)cc1	i
CC(Cc1ccco1)NC(=O)c1cc2n(n1)CCCN(Cc1ccccc1)C2=O (configuration not stated)	i
OCC1(CCCc2ccccc2)CCCNC1 (configuration not stated)	i
CCN1CCC(N2CCC3(CC2)CC2C(=O)N(CC)C(=O)N2C3)CC1 (configuration not stated)	i
Next section:
SMILES	Methyltransferases
Cc1nncn1C1CN(S(=O)(=O)c2ccc3c(c2)CCC3)C1	i
CC(C)(Oc1nn(CC2CCOCC2)c2ccccc12)C(=O)NCc1ccncc1	i
CCCNC(=O)[C@@H]1Cc2cn(Cc3nccn3C)c3cccc(c23)[C@H](CC(C)C)N1	i
Cc1cccc(C(C)(C)C)c1NC(=O)N1CCN2C(=O)CNC(=O)C2C1 (configuration not stated)	i
CSc1ccc(CCNC(=O)CCCn2ccc3cc(S(=O)(=O)N4CCCC4)ccc32)cc1	i
COCCOc1ncccc1-c1noc([C@@H]2CCCN2Cc2ccc(OC)cc2O)n1	i
Cc1ccc(-c2cc(C(=O)NCc3cccs3)nn3cnnc23)cc1	i
CCCn1c(=O)c2ccc(C(=O)NCC(C)C)cc2n2c(=O)n(CC(=O)NCc3ccc(C)cc3)nc12	i
CCCCCOc1ccc(-c2ccc(-c3ccc(C(=O)N[C@H]4C[C@@H](O)[C@@H](O)NC(=O)[C@@H]5[C@@H](O)[C@@H](C)CN5C(=O)[C@H]([C@@H](C)O)NC(=O)[C@H]([C@H](O)[C@@H](O)c5ccc(O)cc5)NC(=O)[C@@H]5C[C@@H](O)CN5C(=O)[C@H]([C@@H](C)O)NC4=O)cc3)cc2)cc1	i
CCC(C)C(=O)OC1C(C)C2(O)C(C=C(CO)CC3(O)C(=O)C(C)=CC32)C2C(C)(C)C12OC(=O)C(C)C (configuration not stated)	i
COCC1(CNS(=O)(=O)c2ccc(Cl)cc2)C[C@@H](O)[C@@H](O)C1 (some centres not stated)	i
CNC(=O)Cn1nc(C(=O)N2CCC3(CC2)[C@H](O)C[C@@H]3O)cc1C	i
CC(C)CCNC(=O)C1(C)Cn2c(c(-n3cccc3)c3ccccc32)C(=O)N1Cc1ccccn1 (configuration not stated)	i
Cc1ccc(Cn2c(=O)c3ccccc3n3c(=O)n(Cc4ccc(F)cc4)nc23)cc1	i
C[C@@H](c1ccccc1)N(C(N)=NC#N)c1cccc2ncccc12	i
N[C@H]1CN(C(=O)c2cccc(-n3cnnc3)c2)C[C@@H]1c1ccccc1	i
COc1ccc(CN2C(=O)c3cc4oc(C)cc4n3CC2(C(=O)NC2CCCCCC2)c2ccccc2)cc1 (configuration not stated)	i
Cc1nc(CN(C)C(=O)c2coc(COc3ccc(F)cc3Cl)n2)cs1	i
COc1cccc(CN2CC(=O)N(Cc3ccc(F)cc3)c3ccccc3S2(=O)=O)c1	i
CCN1C(=O)c2cc3ccccc3n2CC1(C)C(=O)NCC(=O)NCc1ccccc1C (configuration not stated)	i
COCCN(C)C[C@H]1C[C@H](CO)CN(C(=O)c2cc3ccccc3s2)C1	i
O=C(CCc1nnc2n(CCc3ccccc3)c(=O)c3ccccc3n12)NCc1ccc(Cl)cc1	i
CC1CN(c2cc3c(cc2F)c(=O)c(C(=O)O)cn3-c2ccc(F)cc2F)CCN1 (configuration not stated)	i
Cc1ccnn1CC(=O)N(Cc1ccncc1)Cc1cccc(OCCc2ccc(F)cc2)c1	i
O=C1O[C@H](C(O)CO)C(=O)C1=O (some centres not stated)	?

Of the compounds above, 3 have an aryl thioether with sulfur outside any ring:
SMILES	Methyltransferases
Cc1cccc(CSc2nnc3n(Cc4ccccc4)c(=O)c4ccccc4n23)c1	i
Cc1ccc(NC(=O)CSc2nnc3n(CC(C)C)c(=O)c4ccc(C(=O)NC(C)C)cc4n23)c(C)c1	i
CSc1ccc(CCNC(=O)CCCn2ccc3cc(S(=O)(=O)N4CCCC4)ccc32)cc1	i

Carrying on.
SMILES	Methyltransferases
CN(C)C(=O)N(C)Cc1ccc(F)cc1	i
O=c1c2ccccc2nc2n1CCc1c-2[nH]c2ccccc12	i
COC(=O)c1ncn2c1C(=O)N(Cc1ccc3c(c1)OCO3)C(C)(C(=O)NC1CCCCC1)C2 (configuration not stated)	i
Cc1ccc(C(=O)O)c2c1N[C@H](c1cccc(Cl)c1)C1CC=CC21 (some centres not stated)	+
Cc1ccc(C(=O)N2CCC(N3CCOCC3=O)CC2)cc1	i
CNc1cc(C2CC(NS(=O)(=O)c3ccc(Cl)s3)C2)nc(N)n1 (configuration not stated)	i
CNC(=O)C1(N2CCC[C@H]2C(=O)N(C)Cc2cccnc2)CCOCC1	i
Cc1noc2c(N3CCOCC3)cc(-c3cccs3)nc12	+
COc1ccc(CNC(=O)Cn2nc3n(CCC(C)C)c(=O)c4ccccc4n3c2=O)cc1	i
O=C(Cn1c(=O)n2nc(-c3ccc(F)cc3)nc2c2ccccc21)N1CCN(c2ccc(F)cc2)CC1	i
CC(NCCCc1cccc(C(F)(F)F)c1)c1cccc2ccccc12 (configuration not stated)	?
COc1ccc(NS(=O)(=O)c2cc3c(cc2Cl)n(C)c(=O)n3C)c(OC)c1	i
COCCNC(=O)c1ccc2c(=O)nc3c(-c4ccccc4)n[nH]n3c2c1	i
O=C(Cn1cncn1)N1CCc2onc(C(c3ccccc3)c3ccccc3)c2C1	i
COc1ccccc1CNC(=O)C1(C)Cn2c(cc3ccccc32)C(=O)N1Cc1ccccc1Cl (configuration not stated)	i
COc1ccc(-c2ccc3ncc4c(c3c2)n(-c2ccc(N3CCNCC3)c(C(F)(F)F)c2)c(=O)n4C)cn1	?
C=C(C)C(O)COc1ccc(CC(=O)O)cc1 (configuration not stated)	i
C[C@@H](Cc1cc2c(c(C(N)=O)c1)N(CCCO)CC2)NCCOc1ccccc1OCC(F)(F)F	i
Cc1nccn1CCC1CCN(c2nccc(-c3ccccn3)n2)CC1	+
Cc1ccc([S+](=O)([O-])NC2CCN(Cc3ccc(-c4ccsc4)cc3)C2)cc1 (configuration not stated)	i
COc1ccc(N2CCN(C(=O)CCc3nnc4n(CCCOC(C)C)c(=O)c5ccccc5n34)CC2)cc1	i
C=CC(C)(O)CCC1C(C)(O)CCC2C(C)(C)CCCC21C (configuration not stated)	?
O=C1NC(=O)/C(=C/c2ccc(-c3ccc(F)cc3O)o2)S1	+
CC(C)CCn1c(=O)c2ccc(C(=O)NCC(C)C)cc2n2c(=O)n(CC(=O)N(C)c3ccccc3)nc12	i
COc1cc(O[C@@H]2O[C@H](CO[C@H]3OC[C@](O)(CO)[C@H]3O)[C@@H](O)[C@H](O)[C@H]2O)cc(OC)c1O	i
(more compounds)
SMILES	Methyltransferases
COc1ccc(CNC(=O)c2cc3n(n2)CC(C)(C(=O)NC2CCCCC2)N(C)C3=O)c(OC)c1 (configuration not stated)	i
CC(C)Cn1c(=O)c2ccccc2n2c(=O)n(Cc3ccc(F)cc3)nc12	i
CC(C)n1nc(C#Cc2ccccc2)c2c(N)ncnc21	i
O=C(O)CC1(CC(=O)N[C@@H]2C=C(C(=O)N[C@H]3CCCNC3=O)C[C@@H](O)[C@@H]2O)CCCC1	i
O=C(c1cccnc1)N1CCN(c2cc(-c3ccccc3)[nH]n2)CC1	i
COc1cccc(CNC(=O)Cn2c(=O)oc3cc(S(=O)(=O)N4CCC(C)CC4)ccc32)c1	i
CCOCCCN1C(=O)c2ccc(-c3ccco3)n2CC1(C)C(=O)NC1CCCC1 (configuration not stated)	i
CCc1cc2c(cc3n2CC(C)(C(=O)NC2CCC(C)CC2)N(CCCOC)C3=O)s1 (configuration not stated)	i
COc1ccc(OC)c(-c2nc3cc4c(cc3cc2CN2CCCOCC2)OCO4)c1	i
COc1ccc(CNC(=O)CSc2nnc3n(CCc4ccccc4)c(=O)c4ccccc4n23)cc1	i
C[C@]1(CO)CCC[C@]2(C)C3=C(CCC12)COC3 (some centres not stated)	i
Cc1cccc([S+](=O)([O-])N2CCC3(CC2)OCCN(CC2CC2)C3=O)c1	i
CCCN1C(=O)c2cc(C(=O)N3CCN(c4ccccc4F)CC3)nn2CC1(C)C(=O)NC1CCCC1 (configuration not stated)	i
O=C(O)CCn1ncc2cc(OCC3CCN(c4ncc(F)cn4)CC3)ccc21	i
CC(C)(O)C1CC=C(C(=O)OC[C@H]2O[C@@H](OC(=O)C3=CCC(C(C)(C)O)CC3)[C@H](O)[C@@H](O)[C@@H]2O)CC1 (some centres not stated)	+
C#CCN(C)Cc1nc(C2(O)CCN(C(=O)c3ccccc3F)CC2)cs1	i
O=C(CCc1nnc2n(Cc3ccc(F)cc3)c(=O)c3ccccc3n12)N1CCN(C2CCCCC2)CC1	i
CCOC(=O)c1ccc(N(C)c2csc(-c3ccccc3)n2)cc1	i
CSc1ccc(CCNC(=O)CCc2nnc3ccc(NCCCN4CCCC4=O)nn23)cc1	i
COc1cccc(CN2C(=O)c3cc4sccc4n3CC2(C)C(=O)NC2CCCCC2C)c1 (configuration not stated)	i
COCCCN1C(=O)c2nc3ccccc3n2CC1(C)C(=O)NC1CCC(C)CC1 (configuration not stated)	i
COC(=O)c1ncn2c1C(=O)N(c1cc(C)cc(C)c1)C(C)(C(=O)NC1CCCC1)C2 (configuration not stated)	i
CC(C)(C)c1coc([C@@H]2COCCN2Cc2ccc(C(=O)O)cc2)n1	i
CNCc1ccc(C)c(NC(=O)c2ccc(Nc3nc(-c4ccccc4)c4ccccc4n3)cc2)c1	?
CCOCC(=O)N1CCC(Nc2cccn3ncnc23)CC1	?
Further compounds:
SMILES	Methyltransferases
O=C(c1ccc(C(F)(F)F)cc1)N1CCC2(CC1)COc1ccccc1NC2=O	i
CC(=O)NC1CCN(C(=O)Cc2c(C)[nH]c3c(C)ccc(C)c23)C1 (configuration not stated)	i
CC/C(C)=C/C(=O)OC1C(OC2(C)CCC3C(C4C(C)CCC42)C3(C)C)OC(C)C(O)C1O (configuration not stated)	i
CCC1c2ccc(C)n2CCN1C(=O)Nc1cc(C)cc(C)c1 (configuration not stated)	i
CN(C)C(=O)COC(=O)c1cc(-c2ccc(C3CCNCC3)cc2)c2ccc(-c3ccc(C(F)(F)F)cc3)cc2c1	i
c1ccc(Nc2cc3c(cn2)NCCN(Cc2ccccn2)C3)cc1	i
CNC(=O)N1CCCC(n2c(C)cnc2-c2ccncc2)C1 (configuration not stated)	i
C[C@@]1(O)CCN(C(=O)c2cccc(F)c2)C[C@H]1N1CCCC1	i
CCC(C)NC(=O)c1ccc2c(=O)n(C(C)C)c3nn(CC(=O)Nc4ccc(Cl)cc4)c(=O)n3c2c1 (configuration not stated)	i

Reformatted as labelled records: part of the list above.
SMILES: CC/C(C)=C/C(=O)OC1C(OC2(C)CCC3C(C4C(C)CCC42)C3(C)C)OC(C)C(O)C1O (configuration not stated)
  Methyltransferases: i
SMILES: CCC1c2ccc(C)n2CCN1C(=O)Nc1cc(C)cc(C)c1 (configuration not stated)
  Methyltransferases: i
SMILES: CN(C)C(=O)COC(=O)c1cc(-c2ccc(C3CCNCC3)cc2)c2ccc(-c3ccc(C(F)(F)F)cc3)cc2c1
  Methyltransferases: i
SMILES: c1ccc(Nc2cc3c(cn2)NCCN(Cc2ccccn2)C3)cc1
  Methyltransferases: i

Screens as filed in PubChem.
